Screening results (PubChem BioAssay)
Ecoli rRNA inh – reduced GFP signal of wild-type E. coli, primary screen, bacterial rRNA inhibitor project, GFP/RFP fluorescence, OD600, single point. E. coli WT GFP vs humanized-ribosome RFP mutants, 24 h; hits give low values; DMSO median 0, no signal -100. GFP signal change (wild-type ribosome), % (test concentration not listed). 350,000 compounds, 1.6% hits;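 active = significant combined selectivity score with lowered wild-type GFP, culture density cut under 30%, mutant RFP and density less affected; inactive = any of these conditions unmet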; note: one replicate is shown; some compounds called inactive have numbers as strong as hits
Ecoli growth – E. coli growth inhibition, primary screen, OD600; Escherichia coli growth, 23 h; hits give low values; 330,000 compounds, 0.21% hits; OD600 absorbance (test concentration not listed); AID 1053175, 2014;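 active = OD600 absorbance below the run mean of sample wells minus 3.6 SD, in any replicate, cut at about 0.56 in these data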;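 note: stock transfer was 300 nL into about 60 µL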
B2AR ag – beta2AR agonists driving receptor internalization, primary screen, cell-based, FAP fluorogen, flow cytometry | Beta-2 adrenergic receptor (Homo sapiens), P07550 | Am2.2-beta2AR cells; reference of the scale not given here | response, % (test concentration not listed) | AID 504454, 2011 | 340,000 compounds, 0.43% hits;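 active = response above a set limit, near 3 SD of response in nonfluorescent compounds, cut at about 42% in these data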;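 note: stock transfer was 100 nL into about 11 µL; a reference agonist was the positive control; negative values mostly stem from fluorescent compounds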
Target sequence (P07550 whole entry, looked up): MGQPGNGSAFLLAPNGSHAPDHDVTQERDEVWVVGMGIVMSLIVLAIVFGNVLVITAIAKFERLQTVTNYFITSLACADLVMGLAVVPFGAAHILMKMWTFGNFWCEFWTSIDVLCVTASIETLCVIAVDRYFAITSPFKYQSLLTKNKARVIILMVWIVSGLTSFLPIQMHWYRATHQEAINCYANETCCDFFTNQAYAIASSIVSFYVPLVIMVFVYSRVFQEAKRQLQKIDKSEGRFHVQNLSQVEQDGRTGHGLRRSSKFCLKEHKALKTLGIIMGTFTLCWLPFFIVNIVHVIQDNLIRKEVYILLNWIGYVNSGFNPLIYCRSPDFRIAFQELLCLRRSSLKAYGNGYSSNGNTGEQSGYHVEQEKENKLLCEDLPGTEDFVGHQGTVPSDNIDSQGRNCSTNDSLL
HNF4A DNA FP – change in binding of human HNF4A to DNA, primary screen, biochemical, fluorescence polarization, FITC-DNA; activity change, % at 10 µM; Hepatocyte nuclear factor 4-alpha (Homo sapiens), P41235; AID 1224865, 2016; 360,000 compounds, 0.3% hits; 1 h; in the data active = activity change above about 30%, passing the limit was not always enough;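 note: controls were the assay level and a saturating level of protein; the project sought stronger binding though the title names inhibitors; some compounds called inactive have numbers as strong as hits; positive values seem to mean higher polarization but the record does not say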
FGF22 binding – binders of human FGF22 protein, primary screen, FGF22 synaptogenesis inhibitor project, biophysical, thermal shift, single point. 340,000 compounds, 1.5% hits. calls only at 9.99 µM. AID 651658, 2012. recombinant FGF22 thermal shift, SYPRO orange fluorescence; percent of sucrose octasulfate shift, DMSO zero. Fibroblast growth factor 22 (Homo sapiens), Q9HCT0;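 active = melting point raised past a set limit in the mean and every replicate; three in four hits are not shown here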
ALR H2O2 inh – inhibitors of human ALR sulfhydryl oxidase, primary screen, biochemical, H2O2 detection, HRP-luminol luminescence, single point; FAD-linked sulfhydryl oxidase ALR (Homo sapiens), P55789; purified ALR, DTT oxidation; inhibition, % (test concentration not listed); 290,000 compounds, 3.8% hits; AID 485317, 2010;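 active = mean and each replicate at 75% or more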;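 note: stock transfer was 7.5 nL into about 7.5 µL; 0% = neutral wells and 100% = wells with inactivated enzyme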
Target sequence (P55789 whole entry, looked up): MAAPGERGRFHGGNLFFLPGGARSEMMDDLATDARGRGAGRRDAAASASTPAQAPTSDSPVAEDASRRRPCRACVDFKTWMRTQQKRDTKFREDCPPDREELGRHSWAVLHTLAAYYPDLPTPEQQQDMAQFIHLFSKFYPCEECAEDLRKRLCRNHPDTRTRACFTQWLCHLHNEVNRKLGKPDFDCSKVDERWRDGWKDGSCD
UCH37 DUB inh – inhibitors of human UCH37 deubiquitinase, primary screen, biochemical, Ub-AMC cleavage, fluorescence; purified proteasome/UCH37; Ubiquitin carboxyl-terminal hydrolase isozyme L5 (Homo sapiens), Q9Y5K5; 330,000 compounds, 0.33% hits; inhibition, % (test concentration not listed);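 active = mean of two replicates above 20%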;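 note: 0% = compound-free wells with enzyme and 100% = wells lacking proteasome; stock transfer was 100 nL into about 20 µL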
Target sequence (Q9Y5K5 whole entry, looked up): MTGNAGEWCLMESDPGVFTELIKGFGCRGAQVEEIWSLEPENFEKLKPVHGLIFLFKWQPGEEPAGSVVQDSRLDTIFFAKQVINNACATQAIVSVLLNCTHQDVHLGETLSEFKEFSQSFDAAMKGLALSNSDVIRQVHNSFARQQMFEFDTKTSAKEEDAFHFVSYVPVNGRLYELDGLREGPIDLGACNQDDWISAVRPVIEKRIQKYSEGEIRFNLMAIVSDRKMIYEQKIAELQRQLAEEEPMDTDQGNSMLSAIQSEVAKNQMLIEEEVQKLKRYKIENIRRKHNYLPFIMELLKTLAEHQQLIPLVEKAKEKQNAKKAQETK
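Signal – fluorescence, ex 355 nm, em 460 nm · System – Proteasome-bound UCH37 · Input – 0.15 nM proteasome as dispensed · Timing – 30 min preincubation with enzyme, 25 min cleavage at room temperature · Read-out basis – percent inhibition of cleavage signal versus uninhibited and no-proteasome wells · Medium – Tris-HCl pH 7.4 with ATP-MgCl2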
Ecoli rRNA inh OD600 – further read-out of Ecoli rRNA inh, marked with its call; OD600 change, %; measured here: OD600 growth;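 optical density of the mix in the first replicate; 0 = DMSO median and -100 = no signal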
Ecoli rRNA inh RFP – also measured in Ecoli rRNA inh; calls as there; RFP signal change, %; measured here: RFP humanized mutant strains;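 first replicate; 0 = DMSO median and -100 = no signal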
An asterisk follows results filed as active; i = inactive; / = no result given; & = joins results of further samples.

Order of values – HNF4A DNA FP	UCH37 DUB inh	ALR H2O2 inh	B2AR ag	Ecoli rRNA inh	Ecoli growth	FGF22 binding	Ecoli rRNA inh RFP	Ecoli rRNA inh OD600
- Cc1nc2ccccc2n1S(=O)(=O)c1ccc(S(=O)(=O)N2CCCCCC2)cc1
  -4.1	2.3	0	0	/	0.63	/	/	/
- O=C(Nc1ccc(N2CCN(Cc3ccccc3F)CC2)cc1)c1ccccc1[N+](=O)[O-]
  2.6	7.3	-16	2	-26	0.68	i	-3.6	-22
- COCCNC(=O)C(c1ccc(C)o1)N(C(=O)c1snc(C(N)=O)c1N)c1cc(C)cc(C)c1 (stereo unspecified)
  2.3	-41	1	2	/	0.69	/	/	/
- Cc1cc(C)n(-c2ccc(C(=O)OCC(=O)NCc3ccc(Cl)cc3)cc2)n1
  1.0	0.5	-8	-3	14	0.72	i	4.0	13
- O=C(NC1CCCCC1)N(Cc1ccccc1)Cc1ccco1
  -0.1	1.5	-2	-14	/	0.68	/	/	/
- CC(=O)NCCC1CCCCN1C(=O)c1cc(COc2cc(C)ccc2C)on1 (stereo unspecified)
  1.2	-1.4	0	-5	2	0.67	i	-4.3	7
- N/C(=N/OC(=O)c1ccc(Cl)cc1)c1ncc([N+](=O)[O-])s1
  0.8	/	-28	11	2	/	/	-1.7	1
- CC(C)NC(=S)N1CCN(S(=O)(=O)c2cccc(C(F)(F)F)c2)CC1
  -2.9	4.3	3	-11	/	0.7	/	/	/
- O=C1CCc2cc(S(=O)(=O)NC(Cc3ccccc3)C(=O)N3CCN(c4ccccn4)CC3)ccc2N1 (stereo unspecified)
  1.9	4.1	/	5	-5	0.68	i	-1.3	-2
- C[C@@H]1CN([C@H](C)CO)C(=O)c2c(c3ccccc3n2C)-c2ccccc2CO[C@H]1CN(C)C(=O)c1cc(Cl)cc(Cl)c1
  -2.0	/	/	/	5&2	/	i	-1.8&-2.0	12&4
- CN(C)S(=O)(=O)c1ccc(S(=O)(=O)N2CCCC2)cc1
  -3.4	4.6	/	0	/	0.73	/	/	/
- CN(C)/C=C1\N=C(c2cccs2)OC1=O
  -0.8	1.1	93*	-1	/	/	/	/	/
- O=C(Nc1ccccc1Oc1ccccc1)c1ccc(Br)o1
  -0.8	0.0	-1	-4	/	/	/	/	/
- CSc1nnc(C(C)(C)C)c(=O)n1/N=C/c1ccccc1O
  -1.0	/	-1	-5	9	/	i	-0.1	6
- CSc1ccc(Cl)c(C(=O)Nc2ccc(Cl)cn2)c1
  1.5	0.4	/	-11	6	0.73	i	-15	-8
- O=C1CN(C(=O)CSc2nnc3ccccn23)c2ccccc2N1
  1.7	1.4	-3	-8	/	0.71	i	/	/
- Cc1ncc(CO)c(/C=N/NC(=O)c2ccc(O)cc2)c1O
  1.9	/	57	-3	/	/	/	/	/
- O=C1NC(=O)C(Nc2cccc3ccccc23)S1 (stereo unspecified)
  3.0	-5.4	48	-3	/	0.71	/	/	/
- OCCN(CCCn1c(C(F)(F)F)nc2ccccc21)c1nc(CN2CCCCC2)cs1
  3.2	0.5	-6	-10	11	0.65	i	-3.8	6
- Cc1nc2ccc(C(=O)N(C)CC3CCCN(CCc4ccc(Cl)cc4)C3)cc2[nH]1 (stereo unspecified)
  0.9	5.0	-6	-7	3	0.68	i	-0.5	11
- CCc1ccccc1N(C)S(=O)(=O)c1ccc(-c2cc(C)no2)s1
  -11	6.2	7	-6	-15	0.69	i	9.5	-29
- Cn1c(N)c(C(=O)COC(=O)/C=C/c2ccc(F)cc2)c(=O)n(C)c1=O
  3.8	-0.1	-4	6	3	0.63	i	1.5	-9
- O=C(NCCOCCNC(=O)OCc1ccccc1)OCc1ccccc1
  -1.6	-0.8	18	1	5	0.66	/	-1.8	1
- O=C1C=C(NCc2ccc(Cl)cc2)CC(c2ccco2)C1 (stereo unspecified)
  -3.3	3.6	-25	-6	/	0.72	/	/	/
- CNC(C)C(=O)NC(C(=O)N1CCCC1C(=O)NNc1ccccc1)C(C)C (stereo unspecified)
  -0.4	0.5	23	2	8	0.67	i	-8.1	6
- Cc1cc(C(=O)CCC(=O)Nc2ccc(S(N)(=O)=O)cc2)c(C)s1
  -2.0	0.5	-1	-1	-5	0.65	i	-0.1	0
- CC(=O)Nc1cc(Br)ccc1O
  -2.6	2.3	5	-10	12	0.63	i	3.9	7
- COc1ccc(C2CCCN2C(=O)Nc2cccc(C(C)=O)c2)cc1OC (stereo unspecified)
  1.8	5.4	2	1	/	0.7	/	/	/
- O=C1C2C3C=CC(C4CC34)C2C(=O)N1c1nccs1 (stereo unspecified)
  0.1	5.4	-4	3	/	0.69	/	/	/
- CCOc1ccc(CCNC(=O)COC(=O)c2ccc(S(C)(=O)=O)cc2)cc1OCC
  2.2	3.7	2	-3	11	0.67	i	-0.1	13
- CC(COc1ccccc1)N1CCC(CO)(Cc2ccccc2)CC1 (stereo unspecified)
  4.1	3.0	-5	10	13	0.65	i	-6.6	10
- COc1ccc(/C=N\NC(=O)CCN2CCN(c3ccccc3)CC2)cc1OC
  0.2	/	98*	2	/	/	/	/	/
- CCN1CCN(C(=O)c2cc3c(OC)c(OC)c(OC)cc3[nH]2)CC1
  2.4	1.8	-23	-2	16	0.63	i	-0.4	7
- Cc1cccc(C)c1OCc1cc(C(=O)NCC2CCCCC2)no1
  6.2	2.9	-4	12	17	0.73	i	0.1	22
- Cc1cc(C)n2nc(C(=O)N/N=C/c3ccc(O)cc3)nc2n1
  -0.7	/	99*	3	6	/	i	2.4	10
- O=C(NN1C(=O)c2ccccc2C1=O)c1ccccc1[N+](=O)[O-]
  7.0	2.1	-1	-6	/	0.65	i	/	/
- COc1cccc(C=Nc2cc(C)cc(C)c2)c1O
  2.6	6.5	-3	3	/	0.67	/	/	/
- CC(C)OCCCNC(=O)Nc1cccc2ccccc12
  -0.1	-0.7	-4	1	5	0.62	i	-0.9	7
- Cc1[nH]c2ccccc2c1-c1csc(N)n1
  6.2	0.9	6	1	0	0.66	i	4.8	-4
- CCN(CC)C(=O)c1sc(NC(=O)C(Sc2ccccc2)c2ccccc2)c(C(=O)OC(C)C)c1C (stereo unspecified)
  0.9	2.9	-4	-1	/	0.81	/	/	/
- O=C(NC1CC1)C1=C[C@H](c2coc3ccccc3c2=O)C[C@H](OCCCCO)O1
  6.8	0.6	-9	-8	/	/	i	/	/
- COc1ccc(-c2noc(CCC(=O)NCC3CCN(Cc4cccc(C)c4)CC3)n2)cc1
  -2.3	4.9	-16	8	/	0.73	/	/	/
- CC(C)(CNc1ccc([N+](=O)[O-])cc1Cl)CNS(C)(=O)=O
  3.5	9.5	-19	1	/	0.73	/	/	/
- Cc1ccc(S(=O)(=O)N2CCCCC2)cc1NC(=O)c1cnccn1
  0.4	-1.1	/	5	0	0.69	i	-0.2	6
- CN1C(=O)C(C)(C)c2cc(S(=O)(=O)N3CCC(C(=O)NCc4ccccc4Cl)CC3)ccc21
  1.4	7.0	-1	10	-8	0.7	i	-1.7	-23
- CC(Oc1ccc(Br)cc1)C(=O)NCC(C)(C)N1CCOCC1 (stereo unspecified)
  0.9	3.3	-3	8	5	0.7	i	-1.1	13
- O=C(COC(=O)CCNS(=O)(=O)c1ccc(Cl)cc1)Nc1ccccc1OC(F)F
  40*	-1.7	/	-3	2	0.69	i	-1.9	1
- COc1ccc(C(=O)Nc2cccc(/C(C)=N\NC(=O)c3ccoc3C)c2)cc1OC
  -1.8	/	/	22	-8	/	i	0.7	-2
- Cc1c(N(C)S(=O)(=O)c2cccc(C(=O)NC(C)C)c2)c(=O)n(-c2ccccc2)n1C
  -3.1	6.5	-16	-6	2	0.64	i	-0.7	8
- CCOc1ccc(C(=O)NNC(=O)CN2C(=O)NC3(CCCC3)C2=O)cc1
  5.5	-0.9	-2	-2	5	0.71	i	1.0	4

Later entries:
Order of values – HNF4A DNA FP	UCH37 DUB inh	ALR H2O2 inh	B2AR ag	Ecoli rRNA inh	Ecoli growth	FGF22 binding	Ecoli rRNA inh RFP	Ecoli rRNA inh OD600
- C=CCN1c2ccccc2[C@]23C[C@@H](C(=O)OC)N(C(=O)OCC)C2=NC(C(=O)OC)=C(C(=O)OC)[C@H]13
  2.9	3.3	-5	-1	4	/	i	-1.1	10
- Cc1ccc(S(=O)(=O)/N=C(\CN2CCOCC2)N2CCOCC2)cc1
  1.7	/	-4	0	/	/	/	/	/
- Cc1c(CN2CCN(CC(C)C)C(CCO)C2)[nH]c2ccc(Cl)cc12 (stereo unspecified)
  1.9	3.2	/	8	3	0.7	i	1.3	2
- CC1CC(C)CN(S(=O)(=O)c2ccc(C(=O)NCCCn3ccnc3)cc2)C1 (stereo unspecified)
  -4.5	2.7	-23	55*	1	0.68	/	0.5	-3
- CC1CCN(c2nc(-c3ccccc3)c(C#N)c(=O)[nH]2)CC1
  0.3	-204	-9	-1	/	0.74	/	/	/
- COc1ccc(CCC(=O)Nc2nnc(C)s2)cc1
  3.0	3.0	-19	1	5	0.66	i	1.3	8
- Cc1cc(=O)oc2cc(Oc3ncccn3)ccc12
  0.9	-63	/	15	/	0.67	/	/	/
- C=CCN(CC=C)C(=O)Cn1cnc([N+](=O)[O-])n1
  -0.8	0.7	-28	3	/	0.7	/	/	/
- Cc1cc(C)c2c(-n3cccc3)n[nH]c2n1
  -2.7	1.3	-3	1	/	0.69	/	/	/
- COc1ccc(C(=O)Nc2nnc(CCS(=O)(=O)c3ccc(C)cc3)s2)cc1
  -1.4	-1.4	-3	-10	12	0.68	i	-2.1	12
- O=C(c1ccc2c(Cl)c3c(nc2c1)CCCC3)N1CCN(c2ccc(F)cc2)CC1
  -1.5	3.0	21	31	-10	0.74	i	11	-19
- Cc1ccc(C(=O)NC(C)c2ccccc2)o1 (stereo unspecified)
  1.6	3.2	-4	6	/	0.72	/	/	/
- c1csc(-c2nnsc2-c2nc3ccccc3[nH]2)c1
  8.0	6.2	29	-40	/	0.77	/	/	/
- CCOC(=O)COc1ccc2c3c(c(=O)oc2c1C)CCC3
  1.8	-13	-3	4	/	0.67	/	/	/
- CCCOc1ccc(CC(=O)NNC(=S)Nc2ccccc2)cc1Br
  2.2	1.7	27	-2	/	0.68	/	/	/
- CC(=O)Nc1ccc(N/C=C/C(=O)c2ccc(Cl)cc2)cc1
  10	-4.2	-1	21	-4	0.65	i	-0.5	7
- CCCCNc1nc2ccccc2n1CC(=O)Nc1c(C)cccc1CC
  7.0	0.6	0	19	/	0.68	/	/	/
- CCCCNC(=S)NNC(=O)c1c(Cl)c(C)nn1C
  3.1	1.1	67	-14	-2	0.68	i	-3.8	4
- CCN1CCc2nc3sc(C(=O)N4CCc5ccccc5C4)c(N)c3cc2C1
  0.3	1.7	/	-4	-7	0.68	i	-1.1	-10

The list is partial; the hit share may differ from the screen's.
